2A StopGo: High Throughput Screening for Foot and Mouth Disease Virus Antivirals; human cells with a luciferase reporter of 2A StopGo recoding; control for the full effect not named in the record; Potency, µM (series often up to 57.9 µM), for the others: at the top dose signal change, negative = less light; 1.2% of 410,000 active; active = well fitted falling curve with a large enough effect; inconclusive = small, poorly fitted or top-dose-only effect; inactive = no such curve, though single readings can be large or run the other way; tested in HEK293T cells; further: on the % scale 0 is the no-effect control and ±100 the full control effect; nearly all actives have a fitted effect of over 45% in size; luciferase light after 4 h
Cruzain noTriton: qHTS Assay for Promiscuous and Specific Inhibitors of Cruzain (without detergent). Cruzipain (Trypanosoma cruzi), P25779. purified cruzain, Z-FR-AMC fluorescence, no detergent. Potency, µM, without a hit: max response, negative = inhibition, actives largely listed as inhibitors. 2.3% of 200,000 active. AID 1476, 2009;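 further: plate controls were enzyme without inhibitor for no effect and buffer without enzyme for full effect; nearly all actives have a fitted effect of over 40% in size; top concentration of the series not given in the record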
Target sequence (P25779 123-467 limits assumed): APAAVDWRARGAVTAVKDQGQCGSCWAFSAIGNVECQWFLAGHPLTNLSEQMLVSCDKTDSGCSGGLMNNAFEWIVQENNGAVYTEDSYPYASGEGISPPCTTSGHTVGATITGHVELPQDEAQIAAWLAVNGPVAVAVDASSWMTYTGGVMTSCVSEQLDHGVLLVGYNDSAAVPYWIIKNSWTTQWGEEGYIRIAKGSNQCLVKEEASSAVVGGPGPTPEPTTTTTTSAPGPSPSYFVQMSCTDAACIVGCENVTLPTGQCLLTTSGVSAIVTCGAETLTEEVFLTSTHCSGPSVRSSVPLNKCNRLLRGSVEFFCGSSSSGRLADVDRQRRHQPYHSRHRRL
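Purified cruzain at 1.5 nM, pre-incubated 15 min with compound at room temperature in 100 mM sodium acetate pH 5.5, 5 mM DTT, 0.00005% Triton X-100. Reaction started with 2 uM Z-FR-AMC; AMC fluorescence increase over 60 s gives rate.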
SARS PLpro yeast: qHTS of Yeast-based Assay for SARS-CoV PLP; S. cerevisiae expressing SARS-CoV PLpro, growth rescue; control for the full effect not named in the record; Potency, µM (titrated, usually from 32.9 µM), without a hit: at the highest dose activity, positive = growth rescue; 0.19% of 330,000 active; active means well fitted rising curve with a large enough effect; inconclusive means small, poorly fitted or top-dose-only effect; inactive means no such curve, though single readings can be large or run the other way; further: 0% is about no effect; nearly all actives have a fitted effect of over 55% in size; growth read by luminescence after 48 h
NS1 function inh: qHTS Assay for Inhibitors of Influenza NS1 Protein Function; Potency, µM (titrated, usually from 46.1 µM), inactives show at the top dose activity, positive = more growth; 0.4% of 270,000 active; S. cerevisiae slowed by influenza A NS1, growth recovery by OD600; active means well fitted rising curve with a large enough effect; inconclusive means small, poorly fitted or top-dose-only effect; inactive means no such curve, though single readings can be large or run the other way; further: nearly all actives have a fitted effect of over 50% in size
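OD600 was taken as the measure of yeast growth restored by compound in an NS1-expressing S. cerevisiae strain. Cells had been washed out of glucose medium and diluted 1:100 into galactose -URA medium, pH 6.0.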
Cruzain inh Det: qHTS Assay for Promiscuous and Specific Inhibitors of Cruzain (with detergent); Potency, µM, for inactives: max response, negative = inhibition, most hits filed as inhibitors; 0.43% of 200,000 active; AID 1478, 2009; Cruzipain (Trypanosoma cruzi), P25779; purified cruzain, Z-FR-AMC fluorescence, 0.01% Triton;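 further: plate controls were neutral wells for no effect and buffer without enzyme for full effect; nearly all actives have a fitted effect of over 40% in size; top concentration of the series not given in the record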
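Compounds were screened in titration against cruzain (1.5 nM) with 0.01% Triton X-100 to counter colloidal aggregation. Activity was the AMC fluorescence increase over 60 s after adding 2 uM Z-FR-AMC at pH 5.5.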
Lassa entry inh: qHTS for Inhibitors of binding or entry into cells for Lassa Virus. Lassa virus pseudotype entry inhibition, cell reporter; control for the full effect not named in the record. Potency, µM (doses to about 37.9 µM), for inactives: at the top dose activity change, negative = inhibition, hits mostly inhibitors. 1.2% of 300,000 active; active means well fitted inhibition curve with a large enough effect; inconclusive means small, poorly fitted or top-dose-only effect, or effect the other way; inactive means flat fitted curve, though single readings scatter; tested in HEK293 cells; further: on the % scale 0 is the no-effect control and ±100 the full control effect; nearly all actives have a fitted effect of over 50% in size; luciferase read-out
RE007 growth inh: qHTS Assay for Inhibitors of the HIV-1 protein Vpr. S. pombe RE007 Vpr strain, BacTiter-Glo ATP luminescence, 24 h; control for the full effect not named in the record. Potency, µM (top dose mostly 92.2 µM), for the others: top-dose activity change, negative = less growth. 0.21% of 360,000 active. AID 651644, 2012; active = well fitted falling curve with a large enough effect; inconclusive = small, poorly fitted or top-dose-only effect; inactive = no such curve, though single readings can be large or run the other way;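 further: on the % scale 0 is the no-effect control and ±100 the full control effect; nearly all actives have a fitted effect of over 50% in size; the assay follows cell death caused by Vpr and the record does not say whether a fall means rescue or toxicity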
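Fission yeast RE007 carrying one integrated HIV-1 vpr copy, seeded at OD 0.01 in PMG+AL medium with 23 nL pinned compound. Grown 24 h at 30 degrees; viability read by BacTiter-Glo luminescence after 5 min.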
Marburg entry inh: qHTS for inhibitors of binding or entry into cells for Marburg Virus. Marburg virus pseudotyped entry inhibition, cell reporter; control for the full effect not named in the record; about a third of the inactives were read at about 46 µM. Potency, µM (series often up to 37.8 µM), for inactives: at the highest dose activity change, negative = inhibition, usual class: inhibitors. 1.8% of 300,000 active. AID 540276, 2011; active = well fitted inhibition curve with a large enough effect; inconclusive = small, poorly fitted or top-dose-only effect, or effect the other way; inactive = flat fitted curve, though single readings scatter; tested in HEK293 cells; about a fifth of its hits are not listed in these tables; further: on the % scale 0 is the no-effect control and ±100 the full control effect; luciferase read-out
The depositor's hits bear a star; ? = inconclusive; nt = no result given; & = joins results of further samples; [ ] = dose if it differs, or a comment. Unless noted, the call rests on the fitted dose curve; in most records, active means well fitted curve in the direction sought with a large enough effect; inconclusive means small, poorly fitted or top-dose-only effect, or another doubt; inactive means no such curve, though single readings can be large; an effect the other way counts as inactive or inconclusive. Potency means the concentration at half of the fitted maximal effect. Rows are unselected; overall some 4.6% were active at least once.

The line under a structure holds: RE007 growth inh, NS1 function inh, Marburg entry inh, Cruzain noTriton, 2A StopGo, Cruzain inh Det, SARS PLpro yeast, Lassa entry inh
CCOCCCNC(=O)C1CCCN(Cc2nc(-c3ccc(CC)cc3)oc2C)C1 (stereo not drawn)
    nt, nt, ?, 6%, ?, -0.9%, nt, -24%[46.1 µM]
CC(=O)NCc1ccc(-c2nc3ccccc3s2)cc1
    -11%, -3%, ?, nt, 9%, nt, 1%, ?
O=C(CCc1ccccc1)NNC(=O)COc1ccccc1
    9%, 5%, 1%, -3%, 17%, 6.7%, 0%, -1%
Cc1occc1C(=O)NCc1ccc(C(=O)O)o1
    -3%, 2%, ?, 1%, -3%, 4.5%, 14%, -11%
O=C1CC(C(=O)Nc2cccc(F)c2)n2ncnc2N1 (stereo not drawn)
    -3%, nt, ?, nt, -23%, nt, -2%, 4%
CCCOc1cccc(-c2cc(C(=O)N/N=C/c3cccnc3)c3ccccc3n2)c1
    -6%, 29%, ?, nt, ?, nt, -1%, ?
CCOCCCN(C(=O)Cn1nnc(-c2ccc(C)o2)n1)C(C(=O)NC1CCCC1)c1ccco1 (stereo not drawn)
    3%, 1%, -2%[46.1 µM], nt, 0%, nt, 2%, 2%[46.1 µM]
COc1ccc(N(Cc2ccccc2)C(=O)c2nc(S(C)(=O)=O)ncc2Cl)cc1
    nt, nt, 2%[46.1 µM], 23%, 18µM*, -8.4%, nt, ?
CCCN1CCC(=O)N(CCSc2ccccc2)CC1
    11%, 13%, nt, nt, 36%[activator], nt, 7%, nt
COc1ccccc1N1CCN(C(=O)Cc2ccc(Cl)cc2)CC1
    7%, -25%, 0%, nt, 30%[activator], nt, -2%, 10%
CNC(=O)c1sccc1SCc1ccc(Cl)cc1Cl
    -1%, -109%, -17%, -1%, ?, 1.9%, -25%, -5%
O=C(CSc1nc2ccccc2c(=O)n1CCCN1CCOCC1)N1CCN(c2ccccc2)CC1
    4%, nt, ?, nt, -15%, nt, 1%, -20%[46.1 µM]
O=C(/C=C/c1ccco1)NC(=S)Nc1ccc(O)c(-c2nc3ccccc3s2)c1
    -19%, 18%, ?, 7.9µM*, ?, -0.4%, -6%, ?
COC(=O)c1cc2oc(C)cc2n1CC(=O)Nc1ccc(OC)c(OC)c1
    nt, nt, 0%[46.1 µM], 27%, -4%, -7.5%, nt, nt
Cc1ccc2oc3c(c(=O)c2c1)C(c1cccc(Br)c1)N(Cc1ccco1)C3=O (stereo not drawn)
    9%, -2%, ?, 25µM*, 8%, 7.1%, 1%, -25%[14.3 µM]
Cc1cccc2nc(-c3ccccn3)c(Nc3ccc(F)cc3)n12
    nt, nt, ?, -5%, ?, 1.5%, nt, ?
O=S(=O)(c1ccc(N2CCOCC2)cc1)N1CCOCC1
    0%, -11%, 14%[46.1 µM], 2%, 4%, 1.9%, nt, -10%
CC(Oc1ccc2c(-c3ccccc3)cc(=O)oc2c1)C(=O)NC(Cc1c[nH]c2ccccc12)C(=O)O (stereo not drawn)
    -2%, nt, ?, nt, 10%, nt, -7%, 5%[46.1 µM]
COc1cccc2cc(C(=O)N3CCN(C45CC6CC(CC(C6)C4)C5)CC3)c(=O)oc12
    -14%, 0%, 3%&0%, -26%, 4%, -3.2%, 2%, 8%
O=C(CN1CCCCC1)NCC(=O)Nc1ccc(Br)cc1C(=O)c1ccccc1
    -12%, 3%, ?, -1%, -23%, 2.5%, -5%, ?
N#CC(C#N)=C1CCc2ccccc2N1
    5%, -8%, 7%, -11%, -11%, -7.5%, 0%, -1%
c1ccc(-c2nnc3sc(-c4csc5c4CCCC5)nn23)cc1
    -4%, -31%, ?, ?, 13%, -8.6%, -22%, ?
O=C(COC(=O)Cc1ccc(-c2ccccc2)cc1)NCc1ccc(F)cc1
    11%, 0%, 8%, ?, 19%, -5.1%, 8%, ?
OC1CCN(c2ncnc3c2nnn3Cc2c(F)cccc2Cl)CC1
    -19%, -5%, 1%, -3%, -16%, -3.8%, 3%, ?
Clc1cccc(-c2nnc(SC/C=C/c3ccccc3)n2Cc2ccco2)c1
    -11%, -1%, ?, -17%, -29%, -7.8%, -7%, ?
CCc1nn(CC(=O)O)c(=O)c2ccccc12
    2%, 4%, 10%, 4%, nt, -4.9%, 5%, 8%
N=c1oc2ccc(Cl)cc2cc1C(=O)NC1CCCCCC1
    2%, 15%, nt, nt, 13%, nt, 1%, nt
Cc1c(Cl)ccc(S(=O)(=O)NCCN2CCOCC2)c1Cl
    -8%, -3%, nt, nt, 44%[activator], nt, 0%, nt
O=C(CN1CCCCCC1)Nc1ccccc1Cl
    -6%, 19%, nt, nt, 10%, nt, 1%, nt
COc1cc(Cl)c(C)cc1NC(=O)c1cnc(N2CCCCC2)c2ccccc12
    nt, nt, nt, ?, -9%, -0.2%, nt, -23%[46.1 µM]

Full records, quoted from the list.
Listed for `COc1cc(Cl)c(C)cc1NC(=O)c1cnc(N2CCCCC2)c2ccccc12` = RE007 growth inh: nt; NS1 function inh: nt; Marburg entry inh: nt; Cruzain noTriton: ?; 2A StopGo: -9%; Cruzain inh Det: -0.2%; SARS PLpro yeast: nt; Lassa entry inh: -23%[46.1 µM]
Listed for `N#CC(C#N)=C1CCc2ccccc2N1` = RE007 growth inh: 5%; NS1 function inh: -8%; Marburg entry inh: 7%; Cruzain noTriton: -11%; 2A StopGo: -11%; Cruzain inh Det: -7.5%; SARS PLpro yeast: 0%; Lassa entry inh: -1%
Listed for `CCc1nn(CC(=O)O)c(=O)c2ccccc12` = RE007 growth inh: 2%; NS1 function inh: 4%; Marburg entry inh: 10%; Cruzain noTriton: 4%; 2A StopGo: nt; Cruzain inh Det: -4.9%; SARS PLpro yeast: 5%; Lassa entry inh: 8%

More structures:
The line under a structure holds: RE007 growth inh, NS1 function inh, Marburg entry inh, Cruzain noTriton, 2A StopGo, Cruzain inh Det, SARS PLpro yeast, Lassa entry inh
COc1cc(-c2n[nH]c(=S)n2-c2cc(C(F)(F)F)ccc2Cl)cc(OC)c1OC
    9%, 16%, ?, -4%, -8%, -7.9%, 14%, 18%
Cc1cccc(NC(=O)CN2CCN(C(=O)c3c(C)nn(Cc4ccccc4)c3C)CC2)c1C
    -3%, nt, 6%, nt, -16%, nt, -14%, 2%
COC(=O)C1=C(C)N(Cc2ccccc2)C(=NCC(C)C)N[C@H]1c1ccccc1
    10%, 2%&22%, nt, nt, ?, nt, -3%&-9%, nt
O=C(NCc1ccccc1)/C(=C\c1ccc([N+](=O)[O-])cc1)NC(=O)c1ccco1
    -13%, 7%, ?, nt, -2%, nt, -8%, -4%
Cc1cccc(NC(=O)CC2C(=O)NC3CCCCC3N2C(=O)c2ccccc2Cl)c1 (stereo not drawn)
    -24%, -7%, -5%, nt, ?, nt, 2%, ?
O=C(NCCNC(=O)c1cccs1)c1ccco1
    -11%, ?, -21%, -3%, -17%, 3.0%, 6%, -2%
CCCn1c(=O)c2ccccc2n2c(SCC(=O)c3ccccc3)nnc12
    -2%, -3%, -6%, ?, 0%, 1.8%, -1%, -3%
COc1cc(C2Nc3ccc4ncccc4c3C3=C2C(=O)CCC3)ccc1O (stereo not drawn)
    ?, -4%, -11%[46.1 µM], -10%, 29%, -10%, -4%, ?
O=C1CC(c2ccccc2)CC(O)=C1C=NCCCO (stereo not drawn)
    12%, -2%, 11%, -3%, -15%, -1.2%, 6%, 1%
CCCc1cc(=O)oc2cc(OCC(=O)NCC(O)c3ccccc3)ccc12 (stereo not drawn)
    -9%, -15%, nt, nt, -13%, nt, -4%, nt
COc1ccc(-c2cc3nc(-c4ccccc4)cc(N4CCC(O)CC4)n3n2)cc1
    -20%, -1%, ?, nt, ?, nt, -2%, ?
CCOc1ccc(S(=O)(=O)N2CCC(C(=O)NCc3ccco3)CC2)cc1C
    87%, -11%, -2%[46.1 µM], nt, -12%, nt, -4%, -17%
Cc1ccc(CNS(=O)(=O)c2ccc(Br)s2)cc1
    -13%, -67%, nt, nt, 15%, nt, 0%, nt
COc1ccccc1C(=O)NC(=O)Nc1nc(-c2ccccc2)cc(C(F)(F)F)n1
    -1%, 0%, nt, nt, -25%, nt, 2%, nt
CC(=O)c1ccc(N(CC(=O)NC2CCCCC2)C(=O)CNC(=O)c2cccs2)cc1
    -18%, -4%, 8%[46.1 µM], nt, 9%, nt, 3%, -13%
COc1ccccc1OCCSc1nc(-c2ccc(C(C)(C)C)cc2)nc2cc(=O)[nH]n12
    nt, nt, nt, -9%, ?, -5.6%, nt, 24%[46.1 µM]
NC(=O)N/N=C/c1coc2ccc3ccccc3c2c1=O
    -13%, 0%, -4%[46.1 µM], nt, 24%, nt, -1%, 15%[46.1 µM]
COCCn1c(SCC(=O)N2CCCC2)nnc1C(C)C
    16%, 6%, 18%[46.1 µM], -1%, -1%, 1.7%, 9%, 1%
COc1ccccc1C(=O)N/C(=C/c1cccc([N+](=O)[O-])c1)C(=O)Nc1cccc(C(=O)O)c1
    2%, nt, 15%[46.1 µM], nt, -7%, nt, 2%, 1%
CS(=O)(=O)c1cccc(C(=O)NC(c2ccccc2)c2ccccc2)c1
    25%, 9%, ?, 18%, 0%, 3.6%, 8%, -8%
CC(=O)c1cc(F)c(N2CCCCCC2)cc1C
    -19%, 5%, -3%, -11%, 8%, -5.9%, 24%, -1%
CCOc1ccccc1N1CCN(S(=O)(=O)CC)CC1
    0%, 6%, 8%, 1%, -5%, -8.3%, 2%, 24%

High-throughput results: PubChem BioAssay, National Center for Advancing Translational Sciences (NCATS)
